# HIV Env fusion – inhibitors of HIV Env-mediated cell fusion. HeLa-JRFL Env/CEM21 cell fusion, luciferase. inhibition, % at 12.3 µM. 1.1% of 360,000 active;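 active = mean replicate inhibition score of at least 50 and every replicate individually at or above 50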;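 note: 0% = plate neutral controls and 100% = maraviroc near 300 nM; one replicate is shown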
# Rce1 inh – inhibitors of yeast Ras-converting enzyme; Q03530; yeast membranes, quenched prenylated peptide cleavage fluorescence; calls only; 0.27% of 290,000 active; AID 2563;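 active = fall in fluorescence gain of 50% or more versus controls, with final raw signal at or below 3038400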;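 note: plate controls were neutral control wells for no effect and wells lacking membranes for full effect; tested at 10 µM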
# Target sequence (Q03530 whole entry, looked up): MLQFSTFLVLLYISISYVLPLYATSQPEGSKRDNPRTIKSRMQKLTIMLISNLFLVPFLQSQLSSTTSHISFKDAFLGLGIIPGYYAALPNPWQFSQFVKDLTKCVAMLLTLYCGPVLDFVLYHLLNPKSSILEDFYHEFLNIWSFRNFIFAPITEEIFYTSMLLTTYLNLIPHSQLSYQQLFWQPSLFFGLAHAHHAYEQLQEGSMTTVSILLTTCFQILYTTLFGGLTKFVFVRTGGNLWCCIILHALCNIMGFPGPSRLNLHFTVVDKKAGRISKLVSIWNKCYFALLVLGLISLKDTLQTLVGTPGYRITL
# UUG fidelity – alters start codon recognition fidelity in yeast | S. cerevisiae UUG-firefly luciferase reporter, luminescence/redox ratio | activity score, % at 18.7 µM | 0.13% of 350,000 active | AID 602363;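 active = replicate mean at a twofold rise or more, about +100% in these data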;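 note: firefly luciferase made from a UUG start codon reports start codon fidelity; reporter light over untreated wells divided by growth signal over untreated wells; some hits fall short of that in this replicate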
# PABP FP inh – PABP-poly(A) binding inhibition | 1% of 290,000 active | PABP-poly(A) RNA binding, fluorescence polarization | P11940 | inhibition, % at 35 µM;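 active = 50% or more with normal probe brightness, or confirmed in later tests; about a fifth of its hits are not listed in these tables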;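 note: calls also rest on retests at 20 µM and on dose response follow-up; controls were probe without protein and protein plus probe with vehicle; some compounds called inactive have numbers as strong as hits; many hits fall short of the cut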
# Target sequence (P11940 whole entry, looked up): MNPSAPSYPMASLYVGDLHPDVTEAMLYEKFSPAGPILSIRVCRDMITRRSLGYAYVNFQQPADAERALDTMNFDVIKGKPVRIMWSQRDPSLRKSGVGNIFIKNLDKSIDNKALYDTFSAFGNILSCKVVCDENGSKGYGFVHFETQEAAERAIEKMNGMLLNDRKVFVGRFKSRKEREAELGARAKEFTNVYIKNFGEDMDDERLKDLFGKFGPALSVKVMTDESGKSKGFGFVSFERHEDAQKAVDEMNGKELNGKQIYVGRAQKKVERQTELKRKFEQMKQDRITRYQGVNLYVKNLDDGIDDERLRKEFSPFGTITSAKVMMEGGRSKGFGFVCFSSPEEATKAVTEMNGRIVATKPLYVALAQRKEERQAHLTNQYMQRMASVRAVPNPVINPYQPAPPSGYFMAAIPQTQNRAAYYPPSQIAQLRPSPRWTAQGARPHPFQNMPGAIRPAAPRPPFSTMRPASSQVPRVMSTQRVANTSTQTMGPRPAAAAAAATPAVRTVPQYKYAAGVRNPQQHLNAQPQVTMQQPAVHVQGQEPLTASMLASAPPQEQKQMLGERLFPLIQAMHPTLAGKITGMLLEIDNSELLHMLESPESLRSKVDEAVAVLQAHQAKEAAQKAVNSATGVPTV
# CSC inhib – cancer stem cell inhibition. cancer stem cell-like cells viability, luminescence. inhibition, % at 7.5 µM. 1.1% of 300,000 active. AID 2717;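 active = mean at 75% or more and at least half the replicates too; tested in HMLE shEcad cells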;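 note: 0% = median of negative and 100% = median of positive control wells; the first replicate is given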
# MT1-MMP act inh – blocks activation of human MT1-MMP; P50281; HT1080 RFP-PRO-GFP cells, GFP/RFP ratio fluorescence, overnight; percent of plate control window, DMSO zero; GFP/RFP ratio change, % at 20 µM; 0.061% of 360,000 active; AID 651647;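 active = GFP/RFP ratio change of at least 30% with cell ATP level not reduced by more than half and red fluorescence within 50% of control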; note: strong numbers were not always called active
#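 Assay system: RFP-PRO-GFP reporter HT1080 cells; read-out basis: GFP/RFP fluorescence ratio; benchmarks: DMSO wells and RFP-L50D-GFP cells; doses: 20 µM single dose, 1% DMSO; schedule: overnight cell settling, then overnight compound exposure, 37 °C, 5% CO2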
# eIF4H inh – inhibitors of RNA binding by human eIF4H; eIF4H fluorescence polarization binding assay; inhibition, % at 35 µM; 0.94% of 290,000 active; AID 2012;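 active = 50% or more with normal probe brightness, or confirmed in later tests; about a fifth of its hits are not listed in these tables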;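 note: calls also rest on retests at 20 µM and on dose response follow-up; 0% = protein and probe with vehicle and 100% = probe without protein; strong numbers were not always called active; many hits fall short of the cut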
# eIF4H inh retest – recorded beside eIF4H inh, whose call it bears; inhibition, %; compound at 20 µM; confirmation average;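 mean of two retest wells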
# PABP FP inh retest – recorded beside PABP FP inh, whose call it bears; inhibition, %; compound at 20 µM; confirmation repeats;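 mean of two retest wells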
# MT1-MMP act inh RFP – further read-out of MT1-MMP act inh, marked with its call; RFP signal change, %; measured here: RFP expression control read;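 0 = vehicle wells; hits needed this value within 50% of zero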
# Active calls of the source: *; i = inactive; x = no result given; & = joins results of further samples.
# Start of the listing, in advance (2 entries):
SMILES,HIV Env fusion,Rce1 inh,UUG fidelity,PABP FP inh,CSC inhib,MT1-MMP act inh,MT1-MMP act inh RFP,eIF4H inh,others
CC(C(=O)O)n1cc(C#N)c(=O)[nH]c1=O (stereo unspecified),16,x,-17,x,x,-1,1,x,
CCOc1ccc(C(=O)NCc2ccco2)cc1OCC,-22,i,-9,5,-10,1,-2,-7,

# The whole of this part, from the start:
SMILES,HIV Env fusion,Rce1 inh,UUG fidelity,PABP FP inh,CSC inhib,MT1-MMP act inh,MT1-MMP act inh RFP,eIF4H inh,others
CC(C(=O)O)n1cc(C#N)c(=O)[nH]c1=O (stereo unspecified),16,x,-17,x,x,-1,1,x,
CCOc1ccc(C(=O)NCc2ccco2)cc1OCC,-22,i,-9,5,-10,1,-2,-7,
Cc1ccc2c(C)c(C(=O)N(C)C(C)c3ccon3)oc2c1C (stereo unspecified),-58,i,-5,-3,2,-4,0,-6,
CC(NC(=O)c1cccc(S(=O)(=O)N2CCN(Cc3ccccc3)CC2)c1)c1ccc(Cl)cc1 (stereo unspecified),-2,x,-9,x,x,0,-7,x,
CCOc1ccc(-c2c(C(=O)N/N=C/C3CC=CCC3)nnn2-c2nonc2N)cc1 (stereo unspecified),3,i,-12,5,-6,-4,0,5,
CCOC(=O)C1CCN(CCC(=O)Nc2ccc(Cl)cc2)CC1,x,i,-6,-14,3,3,-1,-4,
O=C(/C=C/c1ccccc1[N+](=O)[O-])N1CCc2ccccc2C1,17,i,-28,-6,-10,0,-2,-4,
Nc1c(C(=O)NCc2ccco2)sc2nc3c(cc12)C(=O)CCC3,x,i,-4,76*,x,8,2,89*,
COCCN1C(=O)N(c2cccc(C)c2)C(=O)C1CC(=O)Nc1ccc(F)cc1 (stereo unspecified),x,x,2,9,-3,1,4,4,
O=C(Nc1ccc2c(c1)OCO2)c1ccc[n+]([O-])c1,-41,i,-13,8,-6,-1,6,-10,
CN(c1ccccc1)S(=O)(=O)c1ccc(C(=O)N2CCCC(C(F)(F)F)C2)cc1 (stereo unspecified),-2,i,-1,6,6,0,-3,4,
CC(C)=C1SC(N2CCOCC2)=NC1=O,x,i,-10,-9,-7,2,5,-7,
CCN(CC(=O)NCc1ccc(Cl)cc1)C(=O)c1cc(S(=O)(=O)NCc2ccccc2)ccc1C,15,i,-4,0,14,2,-9,2,
O=C(Nc1ccc(F)cc1F)c1ccccc1-c1ccccc1,3,i,x,-10,-5,5,6,-12,
CCCC(C(=O)NCCC(C)C)N(Cc1ccccc1Cl)C(=O)c1snc(C(N)=O)c1N (stereo unspecified),-30,i,-13,1,0,-3,0,10,
COC(=O)c1sc(-c2ccc(C(C)(C)C)cc2)cc1NC(=O)COCC(=O)O,-9,i,-7,0,47,-6,0,-2,
O=C(CCn1c(=O)sc2ccccc21)NCc1cccs1,-28,i,-17,2,x,0,1,2,
O=C(Nc1ccccc1)Nc1cccc(NC(=O)Nc2ccccc2)c1F,10,i,-4,-2,8,-3,1,-3,
O=C1CC(N2CCN(S(=O)(=O)c3ccccc3F)CC2)C(=O)N1c1ccccc1F (stereo unspecified),7,x,6,x,x,6,9,x,
COC(=O)C1=C(Nc2ccccc2NC(=O)CCCC(=O)O)CSC1,-9,i,-14,18,-2,3,0,11,
CCOC(=O)c1c(C)nc2sc3c(=O)[nH]cnc3c2c1-c1ccc(OC)cc1,-23,i,-18,9,-5,-11,-7,-15,
O=C(C1CCN(S(=O)(=O)c2ccccc2)CC1)N1CCCCC1,6,i,-3,-8,-4,-1,0,-4,
CCc1c(C)nc(SC)n(CC#N)c1=O,-86,i,-1,1,2,0,-2,-4,
CC(C)(C)NC(=O)C(c1ccc(O)cc1)N(C(=O)CCC(=O)Nc1nccs1)c1ccccc1F (stereo unspecified),29,i,x,2,-1,-7,-5,-9,
O=S(=O)(c1ccccc1)c1cnc(-c2cccnc2)nc1-c1ccc(Cl)cc1Cl,13,i,-13,-7,27,-9,-5,-5,
O=C(Cc1coc2cc3c(cc12)CCC3)OCc1cc(=O)n2c(n1)sc1ccccc12,-70,i,-17,20,-8,3,9,51,eIF4H inh retest=-2;PABP FP inh retest=-5
CC(C)CCN1CC(=O)N2[C@@H](Cc3c([nH]c4ccccc34)C2(C)C)C1=O,7,i,-3,-8,4,3,-1,-1,
COc1ccc(-c2cc(-n3c(C(F)(F)F)nc4ccccc43)n(CCC#N)n2)cc1,-14,i,5,-4,x,-7,-3,0,
CCCc1cc(=O)[nH]c(SCc2ccc(C#N)cc2)n1,-3,i,-2,3,-8,2,2,5,
CCOc1ccc(Cc2onc3c2C(=O)CC(C)(C)C3)cc1OCC,0,i,x,-2,7,-3,-5,2,
CCCc1ccc(S(=O)(=O)N/N=C\c2ccc3c(c2)OCO3)cc1,-4,i,5,-14,44,-2,4,-5,
Cc1nc(N2CCC(C)CC2)c2c(C)c(C(=O)Nc3ccc(C)c(F)c3)sc2n1,7,i,x,6,x,-2,-2,4,
CCOC(=O)c1c(C)[nH]c(C2=NNC(=Nc3ccccc3OC)SC2)c1C,-118,i,x,4,-2,-13,-24,6,
CO[C@H]1C=CO[C@@]2(C)Oc3c(C)c(O)c4c(O)c(c5c(c4c3C2=O)NC2(CCN(CC(C)C)CC2)N=5)=NC(=O)C(C)=CC=C[C@H](C)[C@H](O)[C@@H](C)[C@@H](O)[C@@H](C)[C@H](OC(C)=O)[C@@H]1C,x,i,x,7,10,x,x,9,
COc1ccc(NC(=O)NCc2ccc3c(c2)OCO3)cc1OC,27,i,-17,10,-7,0,4,7,
COc1ccc(-c2cc(C(=O)NCCCn3ccnc3)no2)cc1,-15,i,x,-6,-1,0,0,-10,
Cn1c(NC(=O)Cc2ccc(F)cc2)cc(=O)n(C)c1=O,-21,i,-27,4,-15,4,4,1,
O=C(O)CC1NCCc2ccccc21 (stereo unspecified),-6,i,x,6,-9,0,4,-2,
COCCn1c(SCC(=O)N2CCCc3ccccc32)nnc1-c1ccco1,8,i,x,-1,0,-1,-3,-6,
CC(=O)NC(CC(=O)OCC(=O)c1ccc(NC(=O)CC(C)C)cc1)c1ccccc1 (stereo unspecified),-6,x,-10,x,-16,-1,3,x,

# 14 structures from above, ordered by number of heavy atoms, ascending.
SMILES,HIV Env fusion,Rce1 inh,UUG fidelity,PABP FP inh,CSC inhib,MT1-MMP act inh,MT1-MMP act inh RFP,eIF4H inh,others
O=C(O)CC1NCCc2ccccc21 (stereo unspecified),-6,i,x,6,-9,0,4,-2,
CCc1c(C)nc(SC)n(CC#N)c1=O,-86,i,-1,1,2,0,-2,-4,
CCCc1cc(=O)[nH]c(SCc2ccc(C#N)cc2)n1,-3,i,-2,3,-8,2,2,5,
Cn1c(NC(=O)Cc2ccc(F)cc2)cc(=O)n(C)c1=O,-21,i,-27,4,-15,4,4,1,
O=C(C1CCN(S(=O)(=O)c2ccccc2)CC1)N1CCCCC1,6,i,-3,-8,-4,-1,0,-4,
COc1ccc(-c2cc(C(=O)NCCCn3ccnc3)no2)cc1,-15,i,x,-6,-1,0,0,-10,
CCOc1ccc(Cc2onc3c2C(=O)CC(C)(C)C3)cc1OCC,0,i,x,-2,7,-3,-5,2,
CC(C)CCN1CC(=O)N2[C@@H](Cc3c([nH]c4ccccc34)C2(C)C)C1=O,7,i,-3,-8,4,3,-1,-1,
CCOC(=O)c1c(C)[nH]c(C2=NNC(=Nc3ccccc3OC)SC2)c1C,-118,i,x,4,-2,-13,-24,6,
CCOC(=O)c1c(C)nc2sc3c(=O)[nH]cnc3c2c1-c1ccc(OC)cc1,-23,i,-18,9,-5,-11,-7,-15,
O=S(=O)(c1ccccc1)c1cnc(-c2cccnc2)nc1-c1ccc(Cl)cc1Cl,13,i,-13,-7,27,-9,-5,-5,
COc1ccc(-c2cc(-n3c(C(F)(F)F)nc4ccccc43)n(CCC#N)n2)cc1,-14,i,5,-4,x,-7,-3,0,
CC(=O)NC(CC(=O)OCC(=O)c1ccc(NC(=O)CC(C)C)cc1)c1ccccc1 (stereo unspecified),-6,x,-10,x,-16,-1,3,x,
CC(C)(C)NC(=O)C(c1ccc(O)cc1)N(C(=O)CCC(=O)Nc1nccs1)c1ccccc1F (stereo unspecified),29,i,x,2,-1,-7,-5,-9,

# (next part)
SMILES,HIV Env fusion,Rce1 inh,UUG fidelity,PABP FP inh,CSC inhib,MT1-MMP act inh,MT1-MMP act inh RFP,eIF4H inh,others
CCS(=O)(=O)Nc1cc(C(=O)O)ccc1C,7,i,x,1,-15,2,2,-4,
Cc1ccc(CNS(=O)(=O)c2ccc([N+](=O)[O-])cc2)cc1,2,i,-8,3,8,3,4,6,
CC(Oc1ccc(F)cc1)C(=O)Nc1ccc(N2CCOCC2)cc1N1CCOCC1 (stereo unspecified),x,i,4,x,-10,-3,-3,x,
C#CCOCCOCCOCCNc1nc(N2CCN(C(=O)Cn3cc(CC(C)O)nn3)CC2)nc(N2CCN(C(=O)[C@H]([C@@H](C)CC)n3cc(CCCCN)nn3)CC2)n1 (stereo partly specified),12,x,15,x,x,1,-1,x,
COc1ccc(CCNC(=O)CN2CCCc3ccccc32)cc1OC,-1,i,7,3,-10,-27,3,12,
CC(NC(=O)Nc1ccccc1F)C(C)(C)C (stereo unspecified),-10,i,x,-1,0,0,5,1,
CCNC(=S)NNc1nc(N2CCCCC2)nc(N2CCOCC2)n1,-9,i,x,0,1,1,1,4,
O=C(NCCCn1ccnc1)c1cccc(Cl)c1,16,i,-13,1,-8,-2,0,-13,
CC1CN(C(=O)Cc2ccc(-c3ccccc3)cc2)CC(C)O1 (stereo unspecified),x,i,1,-6,2,1,-1,-18,
C[C@@H]1CN([C@H](C)CO)C(=O)CCCn2nncc2CO[C@H]1CN(C)S(=O)(=O)c1ccc2ccccc2c1,20,x,-18&-11&3,x,x,2,2,x,
Cc1ccccc1Cn1nc(C)c(NC(=O)c2noc3c2CC(C(C)(C)C)CC3)c1C (stereo unspecified),56*,i,-6,-4,-1,2,-6,-8,
CCN(CC(=O)Nc1ccc(NC(C)=O)cc1)C(=O)c1cccc(S(=O)(=O)N2c3ccccc3CC2C)c1 (stereo unspecified),-61,i,19,x,-12,-1,0,x,
OCC1CCCN(C2CCN(Cc3nc(Cc4cccc(C(F)(F)F)c4)no3)CC2)C1 (stereo unspecified),13,i,x,-13,1,-5,0,-1,
COc1ccc(C2CC(=O)C(C=NCC(C)C)=C(O)C2)cc1 (stereo unspecified),5,i,1,-2,-7,-2,3,8,
C=C1CCN([C@H](C(=O)NCc2ccc(OC)cc2)C(C)C)S(=O)(=O)c2ccccc21,10,i,-19,0,-8,-1,-2,-2,
COc1ccc(C2C(C#N)=C(N)N(Nc3ccccc3)C3=C2C(=O)CC(C)(C)C3)cc1C (stereo unspecified),x,i,-4,-2,5,-6,-4,1,
CCn1c(Cc2ccc(OC)cc2)nnc1SCC(=O)Nc1nc2ccccc2s1,x,i,-9,7,-13,-6,-2,-7,
Cc1ccc(S(=O)(=O)N2CCC(c3nnc(SCCN4CCCC4)n3C)CC2)cc1,-6,i,-14,2,49,2,0,-9,
Cc1ccc(C(=O)Nc2ccc(C(=O)N3CCCCC3C)cc2)cc1 (stereo unspecified),13,i,x,-3,-13,0,-5,-14,
COc1ccc(NC(=O)c2ccc(Cn3cc(Cl)cn3)cc2)cc1,2,i,-9,10,-1,-2,-5,-2,
CCCOC(=O)Nc1nc(-c2ccc(C)cc2)c(C)s1,-5,i,x,-2,-1,1,-1,8,

# Bioassay records (PubChem)

# This is a random part of the collection; overall some 3% were active at least once.
